# Sa growth inh – blocks Staphylococcus aureus growth; 170,000 compounds, 0.53% hits; relative growth, % (test concentration not listed); AID 720641; S. aureus RN4220 growth, OD600, 20 h, 42 °C; hits give low values;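 active = growth at 42 °C up to 50% and 20 or more points under that at 30 °C, or under 10% at both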;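 note: 300 nL library stock went into each well; scaled to the means of positive and negative controls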
# GIV Gai3 FP – blocks GIV peptide binding to rat Galpha-i3 | P08753 | Galpha-i3/FITC-GIV peptide fluorescence polarization, 90 min; hits give low values; scaled: aluminum fluoride 0%, vehicle 100% | percent of control (FP), % (test concentration not listed) | 210,000 compounds, 0.42% hits | AID 1224905;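 active = replicate mean at 85% of control or lower, very high polarization wells dropped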;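 note: wells of about 15 µL received 100 nL stock; the first replicate is given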
# Target sequence (P08753 whole entry, looked up): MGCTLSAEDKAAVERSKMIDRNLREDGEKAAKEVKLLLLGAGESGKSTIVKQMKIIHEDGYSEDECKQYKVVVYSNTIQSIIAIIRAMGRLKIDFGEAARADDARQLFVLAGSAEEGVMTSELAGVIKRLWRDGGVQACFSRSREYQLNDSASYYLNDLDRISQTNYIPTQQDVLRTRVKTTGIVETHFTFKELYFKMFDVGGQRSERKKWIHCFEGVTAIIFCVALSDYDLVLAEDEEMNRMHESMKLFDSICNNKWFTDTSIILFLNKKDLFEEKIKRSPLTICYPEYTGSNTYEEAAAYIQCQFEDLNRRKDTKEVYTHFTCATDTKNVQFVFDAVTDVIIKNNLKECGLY
# HCMV NEC inh – cytomegalovirus nuclear egress complex inhibition. AID 1918969. 190,000 compounds, 0.15% hits. inhibition, % (concentration not given with the values). HTRF UL50-UL53 interaction, normalized percent inhibition;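 active = both replicates at 50% or more, plus weaker picks with an unusually low signal ratio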;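 note: stock transfer was 100 nL into about 20 µL; 0% = negative control wells and 100% = wells with untagged competitor protein; inactives centre near -12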
# Sa growth inh second temp – further read-out of Sa growth inh, marked with its call; relative growth, %; measured here: growth at 30 °C;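 optical density after 20 h as mean of two plates; 100% = untreated growth and lower means inhibition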
# * hit, by the source's call; x = no result given; & = joins results of further samples.
smiles	Sa growth inh second temp	Sa growth inh	HCMV NEC inh	GIV Gai3 FP
CCCCn1c(=N)c(S(=O)(=O)c2ccccc2)cc2c(=O)n3cccc(C)c3nc21	89	128	x	104
O=c1[nH]ccc2c(O)cccc12	x	x	-13	102
N#Cc1ccc(OCC(=O)Nc2cc(-c3ccccc3)nn2-c2ccccc2)cc1	87	70	-11	x
COC(=O)c1c(C)[nH]c(C(=O)C(C)n2nnc(-c3ccc(C)cc3)n2)c1C (stereo not given)	91	110	-16	x
CCCN(CCC)CCCNC(=O)c1cn(CC)c2ccc(S(=O)(=O)N3CCc4ccccc4C3)cc2c1=O	86	102	-27	105
COc1ccc2c(c1)c1c(c(=O)n(-c3ccc(C)cc3)c(=O)n1CC(=O)Nc1cc(C)ccc1C)n2C	79	87	x	113
O=C1COc2ccc(C(=O)COC(=O)[C@@H]3CCCN3S(=O)(=O)c3ccc(Cl)cc3)cc2N1	87	101	7	x
CC(C)(c1ccccc1)c1cc(CN2CCOCC2)c(O)c(CN2CCOCC2)c1	84	107	x	101
COc1ccc(C2C(C(=O)NCCc3ccc(OC)c(OC)c3)c3ccccc3C(=O)N2C)cc1 (stereo not given)	72	115	x	96
COC(=O)c1cnn(-c2ccc(C(=O)Nc3ccc(C(C)=O)cc3)cc2)c1N	95	113	x	101
Cn1cc(S(=O)(=O)c2ccccc2)c(=O)c2cc(F)c(N3CCOCC3)cc21	83	107	x	106
COc1ccc(Cc2nc3cc(C)c(C)cc3n(C)c2=O)cc1Br	x	x	-27	107
Cc1ccc(-c2noc(-c3cccnc3N3CCC(C)CC3)n2)cc1	x	x	-9	99
O=C(c1cccc([N+](=O)[O-])c1)N1c2ncnn2C2(CCCCC2)[C@@H]2CCCC[C@@H]21	85	99	-30	102
Cc1scc(CSCC(=O)O)c1C	84	93	x	97
Cc1ccc(NC(=O)CN(C)C(=O)Cn2ncc(Cl)c(Cl)c2=O)cc1	91	88	-35	x
O=C(NCc1ccc(Cl)cc1)c1cc2ccccc2oc1=O	93	100	-3	x
Cc1cc(Br)c(N2C(=O)CCC2=O)c(Br)c1	82	101	-20	101
CCc1ccc(NC(=O)CC(NCc2ccccc2)C(=O)O)cc1 (stereo not given)	92	99	x	98
Nc1ccc(OCc2ccccc2Cl)cc1	87	93	9	104
CC(C)CC(C(=O)Nc1ccc(S(N)(=O)=O)cc1)N1C(=O)C2C3C=CC(C3)C2C1=O (stereo not given)	87	109	x	101
CCc1cc(C(Nc2nc(C)cc(C)n2)c2ccccn2)c(NC(=O)c2ccccc2)s1 (stereo not given)	x	x	-30	114
CC(C)(C)NC(=O)c1ccc(COCC(F)(F)F)o1	99	98	x	101
CCCCCn1c(SCC(=O)N2CCC(C(F)(F)F)CC2)n[nH]c1=O	103	112	-3	108
CCCCCOC(=O)CSc1nc2sc3c(c2c(=O)n1-c1ccccc1)CC(C)(CC)OC3 (stereo not given)	86	90	-40	104
O=C(OCc1cc(=O)n2nc(C3CC3)sc2n1)c1ccc(NC(=O)c2ccccc2F)cc1	87	69	x	101
CCNc1nc(NC(C)(C)C)nc(-n2cnc(SC)n2)n1	x	x	-17	98
Cn1c(SCc2nc3ccccc3o2)nnc1C(F)(F)F	99	107	-6	x
CCc1cccc(NC(=O)NC2CC(=O)N(C3CCCC3)C2)c1 (stereo not given)	84	95	x	108
COc1ccc(C(=O)Cc2ccccc2OC(=O)c2ccccc2)cc1	94	112	-12	x

# (more compounds)
smiles	Sa growth inh second temp	Sa growth inh	HCMV NEC inh	GIV Gai3 FP
CC(C)NC(=O)C1CCCN(c2ncnc3c2nc2n3CCCCC2)C1 (stereo not given)	94	94	x	103
COCCNC(=O)CSc1nnc(-c2cccnc2)o1	x	x	-26	102
COc1ccc(NC(=O)c2cnc(SCC(=O)Nc3cc(C)on3)n(C)c2=O)cc1	100	105	2	108
COc1cccc(-c2cc(=O)n3c(nc4ccccc43)[nH]2)c1	x	x	-12	97
CCCC1C(C#N)=C(N)OC2=C1C(=O)CCC2 (stereo not given)	77	95	-24	x
CCc1nc2cc3sc(CC)nc3cc2s1	94	69	x	112
O=C(CN(Cc1ccco1)C(=O)Cn1nnc(-c2cccs2)n1)NCc1ccccc1	97	120	2	105
CC(C)n1c(=O)c(=O)[nH]c2cc(-c3noc(-c4cc5ccccc5[nH]4)n3)ccc21	x	x	-19	102
COc1ccccc1-n1c(SCc2csc(NC(C)=O)n2)nnc1-c1cccs1	97	83	-40	x
O=C(CCN1C(=O)/C(=C\c2ccco2)SC1=S)NC1CCCC1	86	97	-11	106
Cn1nnnc1SCCNCc1cc(Br)ccc1OCc1ccccc1Cl	49	101	-4	109
Cc1ccc(OC(=O)c2ccccc2)c(-n2nc3ccccc3n2)c1	80	90	x	96
Cc1cc([N+](=O)[O-])ccc1-n1c(C)cc(C=C2C(=O)N(C)C(=S)N(C)C2=O)c1C	x	x	-7	115
Cc1ccc(C)c(N2CCN(C(=O)CS(=O)(=O)c3cccc4nsnc34)CC2)c1	94	96	x	107
COc1ccc(CCNC(=O)Cn2nc(C)n3c(cc4occc43)c2=O)cc1OC	93	108	-2	98
COc1ccccc1NC(=O)Cn1nnc(C(=O)Nc2ccccc2Br)c1N	74	90	x	101
O=C(NCCc1cn2c(n1)SCC2)NC1CCCCC1	93	90	-5	102
O=C(NCC1CCCO1)c1cc(OCc2ccccc2)nc2ccccc12 (stereo not given)	x	x	8	102
Cc1onc(-c2c(Cl)cccc2Cl)c1C(=O)NC1CSC(C)SC1 (stereo not given)	94	106	-11	99
O=C(NCc1nc2ccccc2n1Cc1ccccc1)c1cccs1	84	103	-15	x
O=C(CN1C(=O)COc2ccc(S(=O)(=O)N3CCOCC3)cc21)N1CCN(c2cccc(Cl)c2)CC1	85	99	-38	99
O=C(CCS(=O)(=O)c1cccc2nonc12)Nc1cccc(Cl)c1	65	87	-85	99
COc1ccc(OC)c(C2CC(=O)Nc3nc(N)[nH]c(=O)c32)c1 (stereo not given)	x	x	-8	95
COc1ccc(-c2nc3sc(CCNC(=O)C(=O)Nc4c(C)cccc4C)c(C)n3n2)cc1	93	94	x	108
CC(C)CNCC1COc2ccccc2O1 (stereo not given)	93	122	x	101
O=C(Nc1ccc(Oc2ccccc2)cc1)c1ccc(Cn2c(=O)[nH]c3ccsc3c2=O)cc1	87	113	x	106
COc1cc2c(=O)n(CCC(=O)NCC3CCCO3)c(=O)n(CC(=O)Nc3ccccc3C)c2cc1OC (stereo not given)	106	99	14	103
CSC(N)=Nc1ccc(F)cc1	88	84	-5	108
NC(=O)c1ccccc1NC(=O)CCCOc1ccc(Cl)cc1Cl	65	99	-11	x
CN(C)c1ccc(CC(=O)c2nc3ccccc3s2)cc1	52	85	-31	x

# Brought forward from above: six compounds, followed by the next part.
smiles	Sa growth inh second temp	Sa growth inh	HCMV NEC inh	GIV Gai3 FP
CC(C)CNCC1COc2ccccc2O1 (stereo not given)	93	122	x	101
O=C(Nc1ccc(Oc2ccccc2)cc1)c1ccc(Cn2c(=O)[nH]c3ccsc3c2=O)cc1	87	113	x	106
COc1cc2c(=O)n(CCC(=O)NCC3CCCO3)c(=O)n(CC(=O)Nc3ccccc3C)c2cc1OC (stereo not given)	106	99	14	103
CSC(N)=Nc1ccc(F)cc1	88	84	-5	108
NC(=O)c1ccccc1NC(=O)CCCOc1ccc(Cl)cc1Cl	65	99	-11	x
CN(C)c1ccc(CC(=O)c2nc3ccccc3s2)cc1	52	85	-31	x
COc1ccc(-c2noc(CSc3nnc(-c4ccncc4)n3-c3ccc(C)cc3)n2)cc1OC	87	91	-16	102
COc1ccc(-c2nnc(NC(=O)Cc3ccccc3)o2)cc1	85	101	-1	100
CCC(=O)O[C@H]1CCC2C3CCc4cc(O)ccc4C3CC[C@@]21C (stereo not given in full)	78	82	-41	x
O=C(O)CCC12CC3CC(CC(O)(C3)C1)C2	96	104	-6	100
CN(CCOC(=O)c1ccccc1)c1cc(C(F)(F)F)nc2ccccc12	93	104	-13	102
CC(C)(C)c1nnc2sc(-c3cccs3)nn12	92	89	-28	114
COc1ccc(CCn2c(=O)c3cccnc3n(CC(=O)Nc3c(C)cc(C)cc3C)c2=O)cc1OC	88	99	-29	103
Nc1nonc1C(=O)OCC(=O)c1ccccc1	89	101	3	x
Cc1c(CC(=O)NCc2ccccc2Cl)c(=O)oc2cc(O)ccc12	71	92	-15	104
Cc1ccc2ccc3cc(C(=O)Nc4nc5ccccc5s4)nc3c2[nH]1	x	x	2	107
O=C1N(Cc2cc(F)cc(F)c2)c2ccccc2S(=O)(=O)N1c1cc(F)ccc1F	x	x	5	106
COc1cccc(C(=O)Nc2nc(-c3nnn(-c4cc(C)ccc4C)c3C)ns2)c1	83	78	x	100
O=C(Nc1cccc(Cl)c1)c1cc2cc3ccc(Cl)cc3nc2o1	94	82	x	106
CCCCNC(=O)c1ccc(S(=O)(=O)N(C)C)cc1	85	107	-22	x
CCOC(=O)c1c(NC(=O)c2ccc(Cl)cc2)sc(C(=O)Nc2cccc(Cl)c2C)c1C	x	x	-4	105
CCCN1CCN(CCCNC(=O)c2ccc3nc(Cc4ccccc4)oc3c2)CC1	88	85	x	105
O=C(CCc1nc2ccccc2c(=O)[nH]1)Nc1cccc(N2CCCC2=O)c1	93	112	13	x
CCS(=O)(=O)Nc1ccc2c(c1)CC(=O)N2C	x	x	-30	107
O=C(CNS(=O)(=O)c1ccccc1)Oc1ccc2ccc(=O)oc2c1	106	70	-4	x
COc1ccc(C2CC(=O)N(CC(=O)Nc3c(C)cc(C)cc3C)c3ccccc3S2)cc1OC (stereo not given)	90	92	x	101
CC(=O)Nc1cc(C)ccc1C	88	73	-30	101
O=C(CN1CCN(C(=O)c2ccco2)CC1)Nc1ccccc1C(F)(F)F	98	103	-10	102
O=C(Cc1ccccc1)N/N=C/c1ccco1	92	96	-35	110
CC1(NC(=O)c2ccc(C#N)cc2)CCS(=O)(=O)C1 (stereo not given)	100	104	-5	x
COC(=O)c1ccc(CN(C)C)o1	75	88	-19	98
NNC(=O)C1C(C(=O)NN)C1c1ccccc1 (stereo not given)	89	90	-21	99
NNC(=O)c1cc(-c2ccccc2)n[nH]1	87&83	91&85	-22&-50	101&100
Cc1ccc(-n2c(=O)c3sccc3n(Cc3cc(=O)n4ccccc4n3)c2=O)cc1	87	101	-20	106
Cc1sc2nc(SCC(=O)NCCO)n(-c3ccccc3)c(=O)c2c1C	x	x	-26	106
COc1ccc(CCC(=O)N2CCc3c([nH]c4ccccc34)C2c2ccc(F)cc2)cc1 (stereo not given)	89	120	x	100

# New compounds follow
smiles	Sa growth inh second temp	Sa growth inh	HCMV NEC inh	GIV Gai3 FP
CC(C)C1=NN2C(=N)CC(=O)N=C2S1	101	113	2	107
CC(C)(C)CNC(=O)c1[nH]cnc1C(=O)NCC1CC1	x	x	-19	100
CCN(CC)c1ccc(/C=C2/Sc3c(ccc4ccccc34)C2=O)cc1	x	x	-39	136
COCc1nnc(NC(C)=O)s1	86	105	-8	100
COc1ccccc1N1CCN(S(=O)(=O)c2ccc3c(c2)C(=O)c2ccccc2C3=O)CC1	x	x	-35	103
Cc1cc(-c2nnc(-c3ccc(C(F)(F)F)cn3)o2)no1	91	94	-16	111
CCOCCCNC(=O)CN1C(=O)COc2ccc(S(=O)(=O)N3CCCCCC3)cc21	88	118	-35	103
O=S(=O)(NCCCCN1CCN(c2ncccc2C(F)(F)F)CC1)c1ccc(Cl)cc1	94	99	-16	103
NC(N)=NN=C1CCC(c2ccccc2)CC1 (stereo not given)	73	82	-19	x
CC1(C)Cc2c(C#N)c(SCC(=O)c3ccccc3)nc(N3CCOCC3)c2CO1	x	x	6	105
CCOC(=O)C1=C(C)N=c2s/c(=C\c3ccc(OC(C)=O)cc3)c(=O)n2C1c1ccc(OC(C)=O)cc1 (stereo not given)	x	x	-8	109
Cc1c(F)cccc1NC(=O)CCCCCC1NC(=O)NC1C (stereo not given)	81	101	x	105
CCC(C(=O)NC1CCCC1)N(C(=O)Cn1nnc(-c2ccc(C)cc2)n1)c1ccc2c(c1)OCCO2 (stereo not given)	92	62	10	102
CCCc1c(C(=O)Nc2ccc(OC)cc2)cnn1-c1ccccc1	87	93	-24	102
CC1CCN(c2ccc(-c3nc(C(C)C)no3)cc2[N+](=O)[O-])CC1	80	95	-31	100
Cc1csc(NC(=O)CN2C(=O)C(C)(C)c3cc(S(=O)(=O)N4CCC(C)CC4)ccc32)n1	x	x	-18	106
O=C(O)CCC(=O)N1N=C(c2c(-c3ccccc3)c3cc(Br)ccc3[nH]c2=O)CC1c1ccccc1F (stereo not given)	x	x	-4	100
Cc1ccc(NC(=O)N2CCC(n3c(C)nc4cccnc43)CC2)c(Cl)c1	95	108	x	99

# Compound activity from PubChem.
